Anaer choline gr = blocks anaerobic gram-negative growth on choline. Gram-negative bacterium anaerobic choline minimal medium, absorbance growth; active compounds read low; many inactives read as strong as hits in the columns shown. calls only. 0.2% of 55,000 active. AID 1963822;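 active means growth z-score on choline under -2 at 7 or 20 h with little or no fall on glycerol, limits in tiers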;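 further: stock transfer was 300 nL into about 50 µL; the organism is E. coli; final concentration not given here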
Anaer choline gr early = second read-out of Anaer choline gr, no call of its own (marks repeat the call); z-score; measured here: choline growth z-score, timepoint 1;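 score of optical density at 7 h as mean of two plates; lower means less growth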
* hit, by the source's call. This is a subset. The share of hits here may be higher or lower than overall.

For O=C(Nc1cccc2nsnc12)C1CCCN(S(=O)(=O)N2CCCC2)C1 (stereo not given) the results were Anaer choline gr inactive and Anaer choline gr early 0.29.
For Nc1ccc2nc(Cc3ccc(F)cc3)[nH]c2c1 the results were Anaer choline gr inactive and Anaer choline gr early -2.1.
Screening CCC(=O)Nc1nc2ccc(NC(=O)Nc3cc(Cl)ccc3OC)cc2s1 returned Anaer choline gr inactive and Anaer choline gr early -0.58.
Screening CC(=O)N1c2ccc(S(=O)(=O)N3CCCC3)cc2CC1C(=O)N1CCc2ccccc2C1 (stereo not given) returned Anaer choline gr inactive and Anaer choline gr early -0.19.
Screening CC(C)NC(=O)N1CC=C(C(=O)N2CCCC2)CC1 returned Anaer choline gr inactive and Anaer choline gr early 1.1.
For CCOc1ccc(N(Cc2nc3nc(C)cc(C)n3n2)C(=O)CC(C)C)cc1 the results were Anaer choline gr inactive and Anaer choline gr early -1.1.
`Cc1cccc(CNC(=O)c2ccc(Nc3ncc(-c4cccc(F)c4)cn3)cc2)c1` gave Anaer choline gr inactive and Anaer choline gr early 0.48.
Screening COc1ccccc1NC(=O)C1Sc2nnc(-c3ccccc3)n2NC12CCCC2 (stereo not given) returned Anaer choline gr inactive and Anaer choline gr early 1.5.
For CN(CCNC(=O)c1cc(-c2cccnc2)nc2ccc(Br)cc12)C1CCCCC1 the results were Anaer choline gr inactive and Anaer choline gr early 0.04.
Screening CC1CSc2ccc(S(=O)(=O)N3CCC(CN4CCc5ccccc5C4)CC3)cc2NC1=O (stereo not given) returned Anaer choline gr inactive and Anaer choline gr early -0.83.
CC(C)NCc1ccc(-c2ccc(Cl)cc2)o1 was read as Anaer choline gr inactive and Anaer choline gr early -0.52.
COc1ccc(-c2csc(-c3nc(-c4ccc(Br)cc4)cs3)n2)cc1F was read as Anaer choline gr inactive and Anaer choline gr early 0.02.
Screening O=C(C1CCC(=O)N1S(=O)(=O)c1ccccc1)N1CCCCC1 (stereo not given) returned Anaer choline gr inactive and Anaer choline gr early -0.67.
CN1CC(=O)N(CC(=O)N2CCN(c3ccccc3)CC2)c2ccccc2C1=O was read as Anaer choline gr inactive and Anaer choline gr early -0.95.
Screening CCOc1ccccc1NC(=O)Cn1c2ccccc2c2ncn(Cc3ccc(OC)cc3)c(=O)c21 returned Anaer choline gr inactive and Anaer choline gr early 1.6.
Cc1cc(C)c2c(c1)C(Cc1sccc1C)C(=O)N2 (stereo not given) was read as Anaer choline gr inactive and Anaer choline gr early -0.29.
For CCCn1c(=O)c2ccccc2n2c(=S)[nH]nc12 the results were Anaer choline gr inactive and Anaer choline gr early 1.4.
`CCN1C(=O)c2cc(C(=O)N3CCC(C)CC3)nn2CC1(C)C(=O)NC1CCCC1` (stereo not given) gave Anaer choline gr inactive and Anaer choline gr early -1.7.
Screening Cc1cc(N2CCC(C)CC2)nc2ccc(NC(=O)c3ccc4c(c3)OCO4)cc12 returned Anaer choline gr inactive and Anaer choline gr early -2.1.
Screening O=S(=O)(NC1CCCC1)c1cc(-c2noc(C3CC3)n2)cs1 returned Anaer choline gr inactive and Anaer choline gr early 0.33.
CCCc1cc(C2CCCN2Cc2cccc(OC)c2O)no1 (stereo not given) was read as Anaer choline gr inactive and Anaer choline gr early -0.63.
`CCSc1nnc(-c2nn(C)c3c2CN(S(=O)(=O)c2cccc4cccnc24)CC3)n1CC` gave Anaer choline gr inactive and Anaer choline gr early -0.27.
For COc1cc(Cl)c(NS(=O)(=O)c2cc(-c3nc(C)c(C)s3)sc2C)c(OC)c1 the results were Anaer choline gr inactive and Anaer choline gr early -0.71.
Screening CC1=C(C(=O)OC(C)(C)C)C(c2ccc(Br)cc2)n2nnnc2N1 (stereo not given) returned Anaer choline gr inactive and Anaer choline gr early 1.2.
`CC1CCN(S(=O)(=O)c2ccc3nn(CC(=O)OC(C)(C)C)c(=O)n3c2)CC1` gave Anaer choline gr inactive and Anaer choline gr early 0.71.
For Cc1nc2nc(N(C)S(=O)(=O)c3ccc(Cl)cc3)nn2c(C)c1Cl the results were Anaer choline gr inactive and Anaer choline gr early -1.8.
For Cc1c(C(=O)NCc2ccc3c(c2)OCO3)cccc1-n1nnc2cccnc21 the results were Anaer choline gr inactive and Anaer choline gr early -0.39.
For Cc1nc(-c2csc(S(=O)(=O)NCc3ccc(F)c(Cl)c3)c2)sc1C the results were Anaer choline gr inactive and Anaer choline gr early 1.1.
For Cn1ncc2c(Nc3cccc(F)c3)ncnc21 the results were Anaer choline gr inactive and Anaer choline gr early -1.
`Cc1cc(C)cc(NCC(O)Cn2nnnc2-c2ccccc2)c1` (stereo not given) gave Anaer choline gr inactive and Anaer choline gr early 0.18.

Three structures out of the list, arranged by length of the SMILES, descending:
For Cc1c(C(=O)NCc2ccc3c(c2)OCO3)cccc1-n1nnc2cccnc21 the results were Anaer choline gr inactive and Anaer choline gr early -0.39.
Screening O=S(=O)(NC1CCCC1)c1cc(-c2noc(C3CC3)n2)cs1 returned Anaer choline gr inactive and Anaer choline gr early 0.33.
CCCc1cc(C2CCCN2Cc2cccc(OC)c2O)no1 (stereo not given) was read as Anaer choline gr inactive and Anaer choline gr early -0.63.

(further entries)
For COC(=O)Cn1cnc2c(-c3ccc(Br)cc3)noc2c1=O the results were Anaer choline gr inactive and Anaer choline gr early -0.13.
For [Li+] the results were Anaer choline gr inactive and Anaer choline gr early 1.1.
`Cc1cc2c(cc3n2CC(C)(C(=O)NC2CCCCC2)N(CCN2CCCC2)C3=O)o1` (stereo not given) gave Anaer choline gr inactive and Anaer choline gr early -0.39.
`CC1(C(=O)NCc2ccc(F)cc2)CCN(C(=O)Nc2ccc(F)c(Cl)c2)CC1` gave Anaer choline gr inactive and Anaer choline gr early -2.5.
`C[C@]12CC[C@H]3c4ccc(O)cc4CC[C@H]3[C@@H]1CCC2OC(=O)CCC1CCCC1` (stereo not given in full) gave Anaer choline gr inactive and Anaer choline gr early 0.57.
Screening COc1ccc(N2CCN(S(=O)(=O)c3cc(-c4nc(C(C)C)cs4)cs3)CC2)cc1 returned Anaer choline gr inactive and Anaer choline gr early 0.05.
Screening Cn1c(N2CCCN(C(=O)CC3CCCC3)CC2)cc(=O)n(C)c1=O returned Anaer choline gr inactive and Anaer choline gr early 0.25.
Screening Cc1cc(Sc2ccccc2NC(=O)Nc2ccc(F)cc2F)n2ncnc2n1 returned Anaer choline gr inactive and Anaer choline gr early 0.72.
`COC(=O)c1sccc1NC(=O)N1CCCC1c1cc(C(C)C)no1` (stereo not given) gave Anaer choline gr inactive and Anaer choline gr early -0.05.
Screening Cc1nc(Nc2ccc(NC(=O)Nc3ccc(C)c(C)c3)cc2)cc(N(C)C)n1 returned Anaer choline gr inactive and Anaer choline gr early 3.
Screening COc1cccc(-c2nc3n(c2C(=O)N(C)C)CCS3(=O)=O)c1 returned Anaer choline gr inactive and Anaer choline gr early -0.11.
For O=C(OCC1CCCO1)c1ccc2c(c1)N(Cc1cccnc1)C(=O)c1ccccc1S2 (stereo not given) the results were Anaer choline gr inactive and Anaer choline gr early 0.97.
Screening O=C(O)c1c(Sc2ccccc2)c2cc(Cl)ccc2n1Cc1ccc(Cl)cc1 returned Anaer choline gr inactive and Anaer choline gr early 0.14.
`Cc1[nH]c(=O)[nH]c(=O)c1S(=O)(=O)NCC1CCCO1` (stereo not given) gave Anaer choline gr inactive and Anaer choline gr early 0.38.
Screening CC(C)(C)c1ccc(C(=O)NCCn2c(C(F)(F)F)nc3cccnc32)cc1 returned Anaer choline gr inactive and Anaer choline gr early -0.99.
Screening CCOC(=O)c1sc2ncnc(Oc3ccc(Cl)cc3)c2c1C returned Anaer choline gr inactive and Anaer choline gr early -0.84.
`Cc1cc2nc(COc3cc(Cl)ccc3NC(=O)CCC3CCCC3)cc(=O)n2o1` gave Anaer choline gr inactive and Anaer choline gr early -1.4.
Screening CC(=O)SC1CC2=CC(=O)CC[C@]2(C)[C@@H]2CC[C@@]3(C)[C@@H](CC[C@]34CCC(=O)O4)[C@H]12 (stereo not given in full) returned Anaer choline gr inactive and Anaer choline gr early 0.09.
For CCOc1ccc(-n2c(=O)c3c(C)c(C)sc3n(CC(=O)N3CCC(C)CC3)c2=O)cc1 the results were Anaer choline gr inactive and Anaer choline gr early -0.84.
Screening Cc1ccc(-c2noc(-c3cc4c(CO)cnc(C)c4oc3=O)n2)cc1 returned Anaer choline gr inactive and Anaer choline gr early 0.68.
Screening Cc1[nH]c(C)c(S(=O)(=O)N2CCCC2)c1-c1nnc(C2CCC2)o1 returned Anaer choline gr inactive and Anaer choline gr early 0.18.
Cc1ccc(-c2cnc3c(-c4ccc(Cl)cc4)c(C)nn3c2N)cc1 was read as Anaer choline gr inactive and Anaer choline gr early 0.14.
CCC1Oc2cc(C)ccc2NC1=O (stereo not given) was read as Anaer choline gr inactive and Anaer choline gr early 0.25.
Screening COCCNC(=O)C1CCN(c2ncnc3c2oc2ccccc23)CC1 returned Anaer choline gr inactive and Anaer choline gr early -0.57.
For Cc1cc2c(cc1S(=O)(=O)NCc1ccccc1Cl)OCC(=O)N2 the results were Anaer choline gr inactive and Anaer choline gr early 0.36.
CCCNC(=O)c1cc2c(s1)N(C)CCC2 was read as Anaer choline gr inactive and Anaer choline gr early -0.61.
Screening Cc1nc(-c2cccc(C(=O)N3CCN(c4nc5cccnc5o4)CC3)c2)no1 returned Anaer choline gr inactive and Anaer choline gr early -0.71.
Screening COc1ccc(S(=O)(=O)N2CCc3cc4cccc(C)c4nc32)cc1 returned Anaer choline gr inactive and Anaer choline gr early 1.4.
NC(Cc1cccc(-c2ccccc2CP(=O)(O)O)c1)C(=O)O (stereo not given) was read as Anaer choline gr inactive and Anaer choline gr early 0.55.
`COc1ccc(-c2nc(Cn3cnc(S(=O)(=O)N4CCCCC4)c3)no2)c(OC)c1` gave Anaer choline gr inactive and Anaer choline gr early 0.21.

Of the compounds above, 2 contain a COOH group:
Screening O=C(O)c1c(Sc2ccccc2)c2cc(Cl)ccc2n1Cc1ccc(Cl)cc1 returned Anaer choline gr inactive and Anaer choline gr early 0.14.
NC(Cc1cccc(-c2ccccc2CP(=O)(O)O)c1)C(=O)O (stereo not given) was read as Anaer choline gr inactive and Anaer choline gr early 0.55.

Entries listed so far that contain an NH in an aromatic ring, in the order listed:
For Nc1ccc2nc(Cc3ccc(F)cc3)[nH]c2c1 the results were Anaer choline gr inactive and Anaer choline gr early -2.1.
For CCCn1c(=O)c2ccccc2n2c(=S)[nH]nc12 the results were Anaer choline gr inactive and Anaer choline gr early 1.4.
`Cc1[nH]c(=O)[nH]c(=O)c1S(=O)(=O)NCC1CCCO1` (stereo not given) gave Anaer choline gr inactive and Anaer choline gr early 0.38.
Screening Cc1[nH]c(C)c(S(=O)(=O)N2CCCC2)c1-c1nnc(C2CCC2)o1 returned Anaer choline gr inactive and Anaer choline gr early 0.18.

(more compounds)
For CCc1ccc(NC(=O)C(CC)n2nc(-c3cc(C)ccc3C)ccc2=O)cc1 (stereo not given) the results were Anaer choline gr inactive and Anaer choline gr early 1.2.
For Cc1ccc(NC(=O)CN2C(=O)CCSc3ccccc32)c(C)c1 the results were Anaer choline gr inactive and Anaer choline gr early 0.42.
Screening CCCn1c(=O)c2sccc2n2c(CCC(=O)NC)nnc12 returned Anaer choline gr inactive and Anaer choline gr early -0.22.
For CCc1ccc(Nc2ccc(C(=O)N3CCc4ccccc43)nn2)cc1 the results were Anaer choline gr inactive and Anaer choline gr early 0.6.
Screening O=c1n(Cc2cccc(Br)c2)nc2c(S(=O)(=O)N3CCCC3)cccn12 returned Anaer choline gr inactive and Anaer choline gr early 0.68.
For COc1ccccc1-n1cc2c(c1-c1ccc(Cl)cc1)c(=O)n(C)c(=O)n2C the results were Anaer choline gr inactive and Anaer choline gr early 0.08.
O=C(Cn1c(=O)nc(-c2ccccc2)c2ccccc21)Nc1ccc(Oc2ccccc2)cc1 was read as Anaer choline gr inactive and Anaer choline gr early 0.4.
For CO[C@H]1CC(O[C@@H]2/C(C)=C/C[C@@H]3C[C@@H](C[C@]4(C=C[C@H](C)[C@@H](C5CCCCC5)O4)O3)OC(=O)[C@@H]3C=C(C)[C@@H](O)[C@H]4OC/C(=C\C=C\[C@@H]2C)[C@]43O)O[C@@H](C)C1O[C@H]1C[C@H](OC)[C@@H](O)[C@H](C)O1 (stereo not given in full) the results were Anaer choline gr inactive and Anaer choline gr early 0.55.
`COc1ccc(Nc2n[nH]nc2C(=O)NCCc2ccc(OC)c(OC)c2)cc1` gave Anaer choline gr inactive and Anaer choline gr early -0.78.
For CC1=NS(=O)(=O)c2cc(S(=O)(=O)CC(=O)Nc3ccc(C(C)C)cc3)ccc2N1 the results were Anaer choline gr inactive and Anaer choline gr early 0.55.
`CCOc1ccc(S(=O)(=O)N2CCN(c3nc4ccccc4n4cccc34)CC2)cc1` gave Anaer choline gr inactive and Anaer choline gr early -1.3.
For COc1ccc(OC)c(S(=O)(=O)Nc2ccc(C3(C(=O)NCCC(C)C)CCC3)cc2)c1 the results were Anaer choline gr inactive and Anaer choline gr early 1.1.
O=C(CCn1nnc2cc(S(=O)(=O)N3CCCCC3)ccc21)N1CCN(c2ccccn2)CC1 was read as Anaer choline gr inactive and Anaer choline gr early -1.9.
`CCCn1c(=O)c2ccc(C(=O)NC(C)C)cc2n2c(SCC(=O)c3ccc(C)cc3)nnc12` gave Anaer choline gr inactive and Anaer choline gr early 0.4.
`CCCC(=O)C1=C(c2ccc(OC)c(OC)c2)N(C(=O)CCC)n2c(C)nnc2S1` gave Anaer choline gr inactive and Anaer choline gr early -0.46.
Screening Cc1cccc(-c2nc(-c3cccnc3)no2)c1 returned Anaer choline gr inactive and Anaer choline gr early -0.38.
`O=C(NCc1ccc2c(c1)CCCN2C(=O)C1CCC1)c1cc(F)cc(F)c1` gave Anaer choline gr inactive and Anaer choline gr early 0.54.
Screening CCOCCCNC(=O)C(CC)N1C(=O)CCCc2ccccc21 (stereo not given) returned Anaer choline gr inactive and Anaer choline gr early -1.4.
Screening O=c1cc(-c2ccccc2)nc2cc(-c3ccc(F)cc3)[nH]n12 returned Anaer choline gr inactive and Anaer choline gr early 2.2.
Screening CCn1c(=O)c(N2CCC(C(=O)NCc3ccccc3Cl)CC2)nc2cccnc21 returned Anaer choline gr inactive and Anaer choline gr early -0.35.

Screening data (PubChem)
